# Mtb bLac sens = beta-lactam sensitization of Mtb H37Rv | hit rate 0.27% among 330,000 | M. tuberculosis H37Rv growth with meropenem, percent inhibition; hits of this screen are not shown here | inhibition, % at 25 µM | AID 434955;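 active = about 74% or more and at least 40 points above the plate without the antibiotic, then above 30% in a dose series; inconclusive = first-round hits that could not be retested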;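 also: growth measured after seven days incubation then overnight dye step; 0% = bacteria only wells and 100% = bacteria with antibiotic; twin plates without the antibiotic show which effects depend on it; some results filed as inactive read as strong as hits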
# Arbovirus inh = arbovirus infection inhibition; inhibition, % at 10 µM; AID 1251; arbovirus infection cell-based antiviral screen; hit rate 0.37% among 200,000;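 active = inhibition from about 30%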;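 also: bluetongue infection of BSR cells; cell survival read as ATP light after 72 h; 0% = infected wells without compound and 100% = uninfected wells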
# YopH inh = blocks Yersinia enterocolitica YopH tyrosine phosphatase; fluorescence Ex485/Em525; inhibition, %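 (about 10 µM by stock and volumes)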; hit rate 0.16% among 140,000; AID 898;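 active = inhibition of 50% or more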;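 also: controls were vehicle for no effect and minimum signal wells for full effect; inactives centre near -20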
# RecA splice inh = blocks M. tuberculosis RecA intein splicing. P9WHJ3. cell-free RecA intein splicing, fluorescence. inhibition, %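 (about 9 µM by stock and volumes)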. hit rate 0.75% among 290,000. AID 2221; in the data active = inhibition above about 30%; inconclusive = no clear call, values can overlap the other calls;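 also: 0% = vehicle wells and 100% = reference inhibitor control wells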
# Target sequence (P9WHJ3 whole entry, looked up, canonical isoform): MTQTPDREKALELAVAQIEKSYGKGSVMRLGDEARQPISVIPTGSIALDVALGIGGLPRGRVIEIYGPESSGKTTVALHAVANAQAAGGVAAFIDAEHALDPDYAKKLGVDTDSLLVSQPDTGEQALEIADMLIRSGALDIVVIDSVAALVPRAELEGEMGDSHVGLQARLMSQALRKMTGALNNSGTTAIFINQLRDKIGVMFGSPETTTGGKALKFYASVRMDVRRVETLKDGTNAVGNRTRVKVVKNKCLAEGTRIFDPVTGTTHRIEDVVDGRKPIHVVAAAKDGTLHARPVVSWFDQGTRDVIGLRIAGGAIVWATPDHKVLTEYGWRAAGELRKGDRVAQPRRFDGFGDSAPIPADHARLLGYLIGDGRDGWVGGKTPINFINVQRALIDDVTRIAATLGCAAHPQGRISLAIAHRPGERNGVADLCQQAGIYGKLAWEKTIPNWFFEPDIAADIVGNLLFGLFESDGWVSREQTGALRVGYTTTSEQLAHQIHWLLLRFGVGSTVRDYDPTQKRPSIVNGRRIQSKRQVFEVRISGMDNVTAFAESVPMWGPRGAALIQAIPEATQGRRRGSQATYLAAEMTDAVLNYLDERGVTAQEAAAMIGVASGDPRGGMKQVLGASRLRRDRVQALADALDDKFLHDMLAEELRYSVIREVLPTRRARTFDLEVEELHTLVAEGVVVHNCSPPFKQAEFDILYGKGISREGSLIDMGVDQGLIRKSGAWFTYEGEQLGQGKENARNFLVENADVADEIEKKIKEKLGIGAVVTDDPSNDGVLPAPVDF
# Mtb H37Rv = M. tuberculosis H37Rv growth inhibitors, H37Rv strain (AID 1626); hit rate 0.95% among 220,000; inhibition, % at 10 µM, or IC50 in µM where a hit was titrated; M. tuberculosis H37Rv growth inhibition; higher % means a stronger effect;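 active = confirmed in a dose series; inconclusive = inhibition above 80% but not taken into the dose series; inactive = below 80% or under 30% at every dose of the series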;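 also: bacteria incubated seven days before Alamar blue readout; 0% = bacteria only wells and 100% = bacteria with antibiotic wells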
# Arbovirus inh repeat = second read-out of Arbovirus inh, no call of its own (marks repeat the call); inhibition, %; measured here: 10K subset replicate screen; many hits read low in the repeat;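 first of two repeat runs on a subset; 0% = infected and 100% = uninfected wells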
# The depositor's hits bear a star; u = inconclusive; x = no result given. This is a subset; the hit share may differ from the screen's.
SMILES,Mtb bLac sens,Arbovirus inh,YopH inh,RecA splice inh,Mtb H37Rv,others
COC(=O)NNC(=O)c1ccccc1OC,-3,2,x,-0.8,4%,
CCCn1nnc2sc3c(c2c1=O)CCC(C)C3 (stereo not given),-10,4,-11,-0.9,6%,
CC(C)Cc1ccc(CN2CCCC(NC(=O)CCN3CCOCC3)C2)cc1 (stereo not given),3,x,x,-0.6,x,
CCOC(=O)C1CCCN(C(=O)C2CCN(S(=O)(=O)N3CCC4(CC3)OCCO4)CC2)C1 (stereo not given),10,4,-10,0.0,-8%,
O=C(CNCc1ccco1)Nc1ccccc1-n1cccc1,-5,-3,10,x,-1%,
Cc1cc(C)n(-c2nc3ccccc3c3nc(C)nn23)n1,-3,10,-13,-3.5,-6%,Arbovirus inh repeat=0
O=C(Cc1cccc2ccccc12)N1CCCc2ccccc21,5,13,25,13,11%,
COC(=O)c1ccc(NC(=O)C(=O)N2CCCC2)cc1,-3,-1,2,-1.4,-8%,
COc1ccccc1NC(=O)c1c(N=Cc2ccccc2O)cnn1C,-6,-2,x,2.9,9%,
CN1CCc2nc(SCC(=O)Nc3ccc(F)cc3)c(C#N)cc2C1,-1,-2,-32,33*,-7%,
CN(C)c1ccc2c(c1)OC(N)=C(C#N)C2c1cccc(F)c1 (stereo not given),16,-39,-21,-10,x,
COc1ccc(C(=O)SC2=NCCS2)cc1,5,0,-5,1.2,-11%,
Cc1ccc(N2C(=O)N3[C@H](c4ccc(Cl)cc4)[C@@H]4C(=O)N(C5CCCCC5)C(=O)[C@@H]4[C@]3(Cc3ccccc3)C2=O)cc1,-4,x,x,2.2,x,
COc1ccc(S(=O)(=O)N2CCN(C)CC2)c2ccccc12,-7,1,-27,-0.2,-6%,Arbovirus inh repeat=5
CC(=O)Nc1ccc(S(=O)(=O)N2CCN=C2SCc2cccnc2)cc1,-2,9,x,-1.1,x,
Cc1ccccc1NC(=O)c1c(C)[nH]c(=S)c(C#N)c1-c1ccco1,6,2,-37,1.6,-5%,
O=C(CN1CCCCC1)NNC(=O)c1cccc(Br)c1,3,x,x,3.0,x,
COc1ccc(N2CCN(Cc3nc(N)nc(Nc4ccc(C)c(Cl)c4)n3)CC2)cc1,98,-24,-1,-0.9,0.55µM*,
Cc1ccccc1C(=O)Nc1ccnn1C1CCN(Cc2ccccn2)CC1,-4,x,x,-1.7,x,
CC(=O)c1cccc(NC(=O)CN(C)Cc2ccc(OC(F)F)cc2)c1,-2,x,x,0.3,7%,

# Fetched by structure from above:
SMILES,Mtb bLac sens,Arbovirus inh,YopH inh,RecA splice inh,Mtb H37Rv,others
O=C(CNCc1ccco1)Nc1ccccc1-n1cccc1,-5,-3,10,x,-1%,
COc1ccc(S(=O)(=O)N2CCN(C)CC2)c2ccccc12,-7,1,-27,-0.2,-6%,Arbovirus inh repeat=5
Cc1cc(C)n(-c2nc3ccccc3c3nc(C)nn23)n1,-3,10,-13,-3.5,-6%,Arbovirus inh repeat=0

# Molecules from the list above that have a halogen:
SMILES,Mtb bLac sens,Arbovirus inh,YopH inh,RecA splice inh,Mtb H37Rv,others
CN1CCc2nc(SCC(=O)Nc3ccc(F)cc3)c(C#N)cc2C1,-1,-2,-32,33*,-7%,
CN(C)c1ccc2c(c1)OC(N)=C(C#N)C2c1cccc(F)c1 (stereo not given),16,-39,-21,-10,x,
Cc1ccc(N2C(=O)N3[C@H](c4ccc(Cl)cc4)[C@@H]4C(=O)N(C5CCCCC5)C(=O)[C@@H]4[C@]3(Cc3ccccc3)C2=O)cc1,-4,x,x,2.2,x,
O=C(CN1CCCCC1)NNC(=O)c1cccc(Br)c1,3,x,x,3.0,x,
COc1ccc(N2CCN(Cc3nc(N)nc(Nc4ccc(C)c(Cl)c4)n3)CC2)cc1,98,-24,-1,-0.9,0.55µM*,
CC(=O)c1cccc(NC(=O)CN(C)Cc2ccc(OC(F)F)cc2)c1,-2,x,x,0.3,7%,

# Going on with the list.
SMILES,Mtb bLac sens,Arbovirus inh,YopH inh,RecA splice inh,Mtb H37Rv,others
Cc1ccc(C(=O)N/C(=C\c2sccc2C)C(=O)NCc2ccncc2)cc1,4,6,-25,-8.8,6%,
Cc1ccc(OCC(=O)NCCNC(=O)c2cccnc2)cc1C,-3,x,x,-6.5,x,
CCOC(=O)C(C(=O)OCC)C(Nc1ccc(Br)cc1)c1ccccc1 (stereo not given),3,-18,-31,-2.3,-6%,
Cc1cc(C2N=C(N)Nc3nc4ccccc4n32)c(C)n1-c1ccccc1Cl (stereo not given),99,-2,-36,10,7.6µM*,Arbovirus inh repeat=-3
CCOC(=O)c1sc(NC(=O)c2ccc(S(=O)(=O)N3CCCCC3)cc2)nc1-c1ccccc1,4,3,-20,-0.9,-2%,
CCC(=O)OCCNc1nc(-c2ccccc2)nc2ccccc12,6,8,x,0.7,-9%,
O=C(CS(=O)c1cccc(C(F)(F)F)c1)Nc1ccccc1Cl (stereo not given),4,2,-46,-3.0,-7%,
Fc1ccc(-c2noc(C3CCN(Cc4cccnc4)CC3)n2)cc1,-7,0,-10,-2.1,10%,
Cc1nc(N/N=C/c2ccc(Br)cc2)cc(N2CCOCC2)n1,3,x,x,-2.4,x,
CCCC(=O)Nc1ccc(C(=O)NCc2ccccn2)cc1,1,1,x,-1.3,4%,
COc1cc(/C=N/N(C)C)ccc1OC(=O)c1cccs1,98,4,x,3.0,73%,
O=C(N/N=C\c1cccc(Cl)c1)c1ccc(Cn2cccn2)o1,-2,1,-24,-2.3,6%,
CC(Nn1cnnc1)c1cc(Cl)ccc1O (stereo not given),0,3,x,-0.8,-1%,
O=C(NCc1cccc(F)c1)C1CCC(=O)N(CCCN2CCOCC2)C1 (stereo not given),9,x,x,0.1,x,
Cc1nc(SCCC(=O)O)c2cc(-c3ccccc3)sc2n1,1,x,x,-1.5,x,
CC(=O)O/N=C/c1c(NCc2ccccc2)nc2c(C)cccn2c1=O,6,x,x,0.8,6%,
O=C(Nc1ccc(Cl)cc1)c1ccc(-n2cncn2)c([N+](=O)[O-])c1,4,1,-5,-8.2,5%,
O=c1c2ccccc2nc2c3ccccc3c(NCc3cccnc3)nn12,-5,-5,x,x,-6%,
Cc1nc2ccccc2cc1C(=O)N/N=C/c1ccco1,0,0,-10,6.1,-5%,
Cc1ccc(-n2c(SCC(=O)Nc3ccc(Cl)cc3)nc(O)cc2=O)cc1,13,x,x,-0.7,x,
COc1ccc2[nH]c(C)c(CCNC(=S)Nc3ccc(F)cc3)c2c1,1,5,x,1.1,8%,
COCCNc1cc(NCCOC)c([N+](=O)[O-])cc1[N+](=O)[O-],7,-5,-23,-0.2,-4%,
CCN1CCN(CCCNC(=O)C2CCCN(c3nnc(-n4cccc4)s3)C2)CC1 (stereo not given),-10,13,-14,-1.5,-5%,
CCc1ccc(NC(=O)c2ccc3c(c2)C(=O)N(CCOC)C3Nc2ccc(CC)cc2)cc1 (stereo not given),-8,5,-31,3.1,-4%,
O=C(Nc1cccc(-c2nc3cccnc3s2)c1)c1cccnc1Cl,78,x,x,2.4,-8%,
CCOc1ccc(N(Cc2cc3ccc(C)cc3[nH]c2=O)S(C)(=O)=O)cc1,2,3,-3,0.4,0%,
Cc1ccccc1NC(=O)CSc1cn[nH]n1,-2,x,x,17,x,
CN(CCNC(=O)Cn1c(=O)sc2ccccc21)Cc1ccccc1,1,-3,-40,-2.7,-3%,Arbovirus inh repeat=-1
N/C(=N\c1nc(CSc2nc3ccccc3s2)cc(=O)[nH]1)Nc1ccc(F)cc1,4,x,x,-0.9,-5%,
Cc1ccccc1NC(=O)N1CCCC1C(=O)NCc1ccccc1 (stereo not given),-5,x,x,-2.1,x,
CN(C)S(=O)(=O)c1ccc(NC(=S)NC(=O)c2cccs2)cc1,-8,2,x,3.2,-8%,
CCOC(=O)/C=C1\Nc2ccccc2SC1=O,1,7,-32,4.8,-3%,
O=C(c1ccco1)N1CCN(c2c([N+](=O)[O-])nn(-c3ccc(Cl)cc3)[n+]2[O-])CC1,-4,-12,x,-1.5,10%,
Cc1cc(NC(=O)CSc2nc(-c3ccco3)cc(C(F)(F)F)n2)n(-c2ccccc2)n1,-5,-17,-16,-0.2,-1%,
COc1ccccc1NC(=O)CCCN1C(=O)C2CC=CCC2C1=O (stereo not given),-5,x,x,-0.4,x,
COc1ccc(CCNC(=O)CNC(=O)c2ccco2)cc1,2,x,x,0.1,x,
CCOc1cc(C2NC(=O)NC(C)=C2C(=O)OC(C)CC)cc(Br)c1O (stereo not given),-5,2,-28,5.3,-8%,Arbovirus inh repeat=-5
Cc1ccc(NC(=O)C2CCN(S(=O)(=O)c3ccccc3)CC2)cc1,-4,4,x,-0.9,0%,
COc1cc(/C=N\NC(=O)c2ccc(C)nc2)ccc1OC(=O)c1ccco1,2,-4,-14,x,-2%,
COc1cc(NC(=S)N2CCN(S(C)(=O)=O)CC2)cc(OC)c1,2,x,x,0.2,x,

# 3 entries already listed, sorted by SMILES length, rising:
SMILES,Mtb bLac sens,Arbovirus inh,YopH inh,RecA splice inh,Mtb H37Rv,others
O=C(Nc1cccc(-c2nc3cccnc3s2)c1)c1cccnc1Cl,78,x,x,2.4,-8%,
COc1cc(NC(=S)N2CCN(S(C)(=O)=O)CC2)cc(OC)c1,2,x,x,0.2,x,
CN(C)S(=O)(=O)c1ccc(NC(=S)NC(=O)c2cccs2)cc1,-8,2,x,3.2,-8%,

# Additional records:
SMILES,Mtb bLac sens,Arbovirus inh,YopH inh,RecA splice inh,Mtb H37Rv,others
CC(=O)N1CCc2cc(C(=O)CN3CCN(c4ccccc4F)CC3)ccc21,-3,2,-49,-0.7,-1%,Arbovirus inh repeat=-5
Cc1cccc(N2C(=O)CC(n3ccnc3)C2=O)c1C (stereo not given),2,0,x,3.2,6%,
Cc1cc(NC(=O)CSc2nc(C(C)(C)C)nc3ccccc23)no1,12,-6,x,0.1,-6%,
COn1c(SCc2ccccc2)nc2ccccc2c1=O,65,12,-29,12,-6%,
CC1(C)OC(=O)C(=CNc2ncccn2)C(=O)O1,5,5,-27,-5.6,-12%,
CC1CN(c2ccc([N+](=O)[O-])cc2F)CCN1C(=O)c1ccco1 (stereo not given),u,x,x,5.8,x,
COc1ccc(CN2CCNCC2)cc1,-6,x,x,0.2,x,
O=C(C[n+]1cnn(CC(=O)c2ccc(Cl)cc2Cl)c1)c1ccc([N+](=O)[O-])cc1,1,-37,-19,5.3,20µM*,
O=C(Nc1cccc(S(=O)(=O)N2CCOCC2)c1)C(c1ccccc1)N1CCCCC1 (stereo not given),-2,-6,x,7.1,7%,
Cc1ccc(C(=O)N/C(=C\c2ccco2)C(=O)NCCN2CCOCC2)cc1,1,x,x,-0.8,x,
Cc1cc(C(=O)Nc2nc(-c3ccccn3)cs2)ccc1[N+](=O)[O-],87,-21,x,1.9,u,
O=C1CN2C(=N1)N(Cc1ccccc1)c1ccccc12,1,0,0,0.3,-4%,
O=C(CCn1c(=S)[nH]c2ccccc2c1=O)N1CCOCC1,4,-1,-55,9.0,3%,Arbovirus inh repeat=3
Cc1ccc2[nH]c3c(NCCCN4CCCC4=O)ncnc3c2c1,0,18,-41,-1.4,-3%,
Cc1c(C=O)c(=O)n(-c2ccccc2)n1C,-4,2,x,5.2,-6%,
O=c1[nH]c(=O)n(CCc2ccc(F)cc2)c(O)c1C=NCc1ccc2c(c1)OCO2,52,-8,-26,2.5,1%,
O=C(N/N=C/C1CC=CCC1)c1ccc(O)cc1O (stereo not given),0,-5,-9,-0.2,4%,
C=CCN1CCN(C(c2cc(OC)ccc2OC)c2nnnn2CC2CCCO2)CC1 (stereo not given),-14,2,-38,1.0,4%,
CCOC(=O)c1sc(NC(=S)NC(=O)c2cccc(Cl)c2)c(C(=O)OCC)c1C,28,37*,-27,-1.0,-5%,
S=C(NCc1ccc(Cl)cc1)NN1CCOCC1,7,9,x,0.9,-1%,
COCCN=C1NN=C(c2cc(C)n(CC3CCCO3)c2C)CS1 (stereo not given),1,5,x,4.1,0%,
Cc1cccc2sc(NC(=O)C3CSC4(C)CCC(=O)N34)nc12 (stereo not given),3,x,x,1.0,x,
COc1ccc(C(CC(=O)O)N2C(=O)CCC2=O)cc1 (stereo not given),-5,x,x,1.1,x,
COc1cc(C(=O)N/N=C/c2ccsc2C)cc(OC)c1OC,-9,-13,-50,-2.2,3%,
COc1cc2ccccc2c2c1CCCC2=O,28,-9,-2,3.6,5%,
Nc1nc(Nc2ccccc2)nc(NCc2ccco2)c1[N+](=O)[O-],39,-15,-8,1.5,17%,
CCCCNC(=O)Cn1cnc2c(cnn2-c2ccc(C)c(C)c2)c1=O,-6,-7,-29,0.1,-8%,
